T cruzi repl: inhibitors of intracellular T. cruzi growth, primary screen, luminescence, NIH3T3 host cells. hit rate 1.4% among 300,000. AID 1885, 2009. T. cruzi beta-gal in NIH3T3, 90 h. inhibition, % (no concentration beside the values);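 active = mean inhibition across valid replicates above about 55%, limit read from the data; inconclusive = mean below that limit but half or more replicates reach it; inactive = mean below it, under half of replicates reach it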;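 also: signal also drops with host cell toxicity which is not excluded here; 0% = plate median of DMSO wells and 100% = zero luminescence signal; higher percent means less beta-gal luminescence so fewer parasites; stock transfer was 50 nL into about 50 µL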
Calb FLC: C. albicans growth inhibition with fluconazole, primary screen, CaCi-2 strain, Alamar Blue fluorescence; C. albicans CaCi-2 (fluconazole-resistant clinical isolate) + fluconazole, 48 h; growth inhibition, % (no concentration beside the values); hit rate 0.57% among 300,000; AID 1979, 2009;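 active = most replicates above 75%; inconclusive = exactly half above 75%; inactive = most below 75%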;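 also: all wells also contain fluconazole at 8 µg/ml as a sub-toxic cotreatment; 0% = median of DMSO wells and 100% = median of geldanamycin control wells; wells of about 8 µL received 7.5 nL stock; the first replicate is given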
LANA-H2A inh: blockers of LANA interaction with H2A/H2B – biochemical, FP readout, HTS, primary screen. Protein LANA1 (Human herpesvirus 8 type P (isolate GK18)), Q9QR71. inhibition, % (test concentration not listed). hit rate 0.6% among 320,000. AID 2629, 2010. cell-free LANA-H2A/H2B peptide, fluorescence polarization; in the data active = inhibition mostly above about 10%, no sharp cut-off; inactive = mostly below about 6.7%;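 also: stock transfer was 7.5 nL into about 10 µL; 0% = median of vehicle wells and 100% = median of positive control wells; one replicate is shown; the record names a cut of 25% in any replicate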
Beta cell apopt: inhibitors of cytokine-induced beta cell apoptosis, primary screen, luminescence; INS-1E cytokine-induced death, ATP luminescence, 48 h; percent of positive-control rescue, neutral wells zero; protection from apoptosis, % (test concentration not listed); hit rate 0.8% among 300,000; AID 435005, 2010;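 active = all replicates at 75% or more, or half of them and the mean; inconclusive = half reach 75% but not the mean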;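 also: 0% = cytokine-treated negative control wells and 100% = positive control rescue; higher means more ATP so stronger rescue from cytokine killing; wells of about 40 µL received 100 nL stock; the first replicate is given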
Vif A3G: inhibitors of Vif binding to APOBEC3G peptide, primary screen, biochemical, TR-FRET, GST-Vif 1-94, biotin-A3G peptide, dose response retest (AID 1117319); hit rate 0.57% among 260,000; inhibition, %; hits with a dose series show IC50 in µM; TR-FRET GST-Vif / biotin-A3G peptide binding; higher % means a stronger effect; test concentration not given here; strong numbers were not always called active; Virion infectivity factor (Human immunodeficiency virus type 1 group M subtype B (isolate …;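 active = above the screen mean plus three standard deviations and confirmed in dose response; inconclusive = results disagree or hit not tested in dose response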;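 also: Vif residues 1-94 fused to GST binding biotinylated APOBEC3G peptide 110-148; 0% = full assay without inhibitor and 100% = GST in place of GST-Vif; retest series ran down from 100 µM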
Bfl-1 A1 inh: caspase 3/7 activation in MEF A1-2A-BIM cells, primary screen, A1 inhibitor project, cell-based, luminescence, HTS; caspase activation, % (concentration not given with the values); Caspase-Glo 3/7 luminescence, 3 h; percent of clofoctol response, vehicle zero; hit rate 0.066% among 330,000; AID 2462, 2010;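 active = over half of replicate activation scores above 10%, or exactly half above 10 with the replicate mean above 10; inconclusive = replicate mean below 10 yet half the replicates above 10; inactive = over half of replicates below 10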;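 also: wells of about 30 µL received 50 nL stock; many hits fall short of the cut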
MLL AF4-AF9 inh: inhibitors of AF4 peptide binding to AF9, primary screen, biochemical, AlphaScreen, biotin-AF4 peptide, FLAG-AF9, single point. inhibition, % at 10 µM. hit rate 0.47% among 350,000;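 active = every replicate reaching a set inhibition limit, whatever the replicate mean, cut at about 25% in these data; inconclusive = mean inhibition reaches that limit but some replicates miss it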;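 also: 0% = plate neutral control median and 100% = total signal loss; the record names both 10 and 1 µM as test concentration; the first replicate is given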
Target sequence (P42568 whole entry, looked up): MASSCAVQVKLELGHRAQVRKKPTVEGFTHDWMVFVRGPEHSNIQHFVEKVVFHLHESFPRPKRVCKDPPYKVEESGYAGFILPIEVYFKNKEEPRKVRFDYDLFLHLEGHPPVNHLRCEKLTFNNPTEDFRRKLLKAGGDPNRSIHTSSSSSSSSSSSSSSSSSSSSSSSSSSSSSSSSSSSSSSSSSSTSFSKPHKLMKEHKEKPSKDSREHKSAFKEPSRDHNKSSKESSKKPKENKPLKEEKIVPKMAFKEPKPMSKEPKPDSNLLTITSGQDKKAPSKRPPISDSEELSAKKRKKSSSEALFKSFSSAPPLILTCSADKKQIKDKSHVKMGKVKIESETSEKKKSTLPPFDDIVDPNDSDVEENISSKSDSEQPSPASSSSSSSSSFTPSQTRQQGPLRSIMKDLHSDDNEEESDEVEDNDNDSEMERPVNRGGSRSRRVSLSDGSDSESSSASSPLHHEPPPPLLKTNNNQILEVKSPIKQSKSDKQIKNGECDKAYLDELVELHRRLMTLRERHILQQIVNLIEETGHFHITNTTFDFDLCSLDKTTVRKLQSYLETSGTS
RanGTP-Impb inh: inhibitors of RanGTP-importin-beta interaction, primary screen, biochemical, FRET, CFP-Ran, YFP-importin-beta, homogeneous | cell-free CFP-Ran/YFP-importin-beta FRET ratio | inhibition, % (test concentration not listed) | hit rate 1.1% among 300,000 | AID 2216, 2009;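 active = most replicates above 15%; inconclusive = exactly half above 15%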;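 also: 0% = DMSO wells and 100% = Ran loaded with GDP instead of GTP; wells of about 40 µL received 100 nL stock; the first replicate is given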
Starred values were filed as active, the others as inactive; ? = inconclusive; / = not tested or not shown.

no.	Molecule	T cruzi repl	Calb FLC	LANA-H2A inh	Beta cell apopt	Vif A3G	Bfl-1 A1 inh	MLL AF4-AF9 inh	RanGTP-Impb inh
1	Cc1ccc2c(c1)nc(-n1nc(C)cc1C)c1nnnn12	0	?	0.7	-3	3%	0.7	-0.1	-1.5
2	Cc1ccc(CNC(=O)C(NS(=O)(=O)c2cccc3nsnc23)c2ccccc2)cc1 (stereo not drawn)	-19	14	4.5	0	-5%	-1.6	/	4.7
3	CCCNC(=O)C1CC(=O)N(c2ccc(OCc3ccc(F)cc3)cc2)C1 (stereo not drawn)	8	2	0.4	-9	/	-8.5	0.7	4.1
4	CCSc1nnc(NC(=O)[C@H](C)NC(=O)c2ccccc2Cl)s1	13	1	-1.2	-5	-4%	-0.9	-0.9	2.8
5	Cn1c(=O)c2c(nc(SCc3nn[nH]n3)n2Cc2ccccc2F)n(C)c1=O	-14	2	/	/	26%	/	/	1.4
6	CC(=O)Nc1ccc(N/C=C(\C#N)S(=O)(=O)c2ccc(Cl)cc2)cc1	2	-1	-2.9	-7	1%	0.7	-6.0	3.7
7	CCNC(=O)c1cc2c(=O)n3cccc(C)c3nc2n(CCc2ccccc2)c1=N	33	-4	4.9	6	-4%	-0.1	/	186*
8	CC(C)(C)c1ccc(C(=O)NN=C2CCCC2)cc1	1	15	-4.6	0	-2%	0.9	0.0	4.0
9	C[C@H](NC(=O)OCc1ccccc1)c1nnc([C@H](C)NC(=O)OCc2ccccc2)o1	-5	-4	3.2	0	/	-0.7	-3.6	-4.6
10	O=C(O)Cc1sc(Nc2cccc3ccccc23)nc1-c1ccccc1	/	/	1.5	2	/	-0.2	4.0	/
11	Cc1cccc(/C(N)=N/OC(=O)c2cccs2)c1	3	10	-2.1	0	0%	-5.0	/	2.7
12	O=C(NC(Cc1ccccc1)c1nc2ccccc2[nH]1)c1ccc(Cl)c([N+](=O)[O-])c1 (stereo not drawn)	5	-18	1.2	-2	13%	-0.1	7.1	?

The results go on:
no.	Molecule	T cruzi repl	Calb FLC	LANA-H2A inh	Beta cell apopt	Vif A3G	Bfl-1 A1 inh	MLL AF4-AF9 inh	RanGTP-Impb inh
13	CCCn1c(SCC(=O)NCC(=O)Nc2ccc(F)c(F)c2F)nc2ccccc2c1=O	/	/	-1.1	3	/	0.3	-0.3	/
14	CCCn1cc(S(=O)(=O)c2ccc(OC)cc2)c(=O)c2cc(OC)ccc21	6	-8	-1.6	0	5%	0.5	-2.0	3.9
15	CCC(C)C(NC=C1C(=O)OC(C)(C)OC1=O)C(=O)O (stereo not drawn)	5	-1	-7.9	-1	5%	1.7	/	?
16	CCC1CN(C(=O)N2CCC(C(=O)NCc3ccco3)CC2)c2cc(C)ccc2O1 (stereo not drawn)	-1	5	-0.3	-2	/	-0.4	3.7	2.7
17	Cc1ccc(C)c(N2N=C(C(=O)OCc3nnc(-c4ccccc4)o3)CCC2=O)c1	2	-2	8.1	-4	-2%	-0.4	1.6	0.0
18	Cc1cc(C)c(OCCCCN(C)C)c(Br)c1	70*	14	5.7	4	/	0.5	-0.7	-1.8
19	CCCCOc1ccc(OC(=O)c2cccnc2)cc1	21	3	3.8	6	-2%	-0.7	/	0.5
20	O=C(NCc1ccc(F)cc1)C(Cc1ccccc1)NS(=O)(=O)c1cccs1 (stereo not drawn)	3	-15	0.4	3	?	-0.8	2.2	-3.3
21	Cc1c(N/C(=N/S(=O)(=O)c2ccc(Cl)cc2)c2ccccc2)c(=O)n(-c2ccccc2)n1C	-9	-1	-9.0	-7	11%	0.9	/	0.6
22	CCN1CCc2nc(SCC(=O)Nc3ccc(OC)cc3)c(C#N)cc2C1	-10	17	-0.1	-6	26%	1.5	/	?
23	CCN(Cc1nc2ccccc2n1C)c1ccccc1	-20	5	4.4	-1	/	0.4	3.9	0.7
24	COc1cccc2c(=O)n(CC(=O)Nc3cccc(F)c3)ccc12	1	-12	-1.9	0	-8%	0.3	-4.2	-2.6

Next structures.
no.	Molecule	T cruzi repl	Calb FLC	LANA-H2A inh	Beta cell apopt	Vif A3G	Bfl-1 A1 inh	MLL AF4-AF9 inh	RanGTP-Impb inh
25	Cc1nc2sccn2c(=O)c1S(=O)(=O)Nc1ccc(N2CCN(C)CC2)cc1	-7	3	-2.0	-11	/	0.0	4.1	1.4
26	O=C(CC1C(=O)NCCN1Cc1cccc(F)c1)NCCCOc1cccnc1 (stereo not drawn)	-15	5	8.5	-1	/	1.8	-1.2	3.8
27	CCOC(=O)C(CC(=O)Nc1nc(C(C)=O)c(C)s1)C(C)c1ccccc1 (stereo not drawn)	-5	/	0.4	2	-9%	0.2	-2.7	-2.9
28	O=C(O)[C@H]1CCCC[C@H]1C(=O)Nc1ccc(Nc2ccccc2)cc1	-4	-1	-1.2	-5	?	0.4	/	-5.0
29	COc1ccc(Cn2c(O)c(/C=C3/C=CC=N3)c(=O)[nH]c2=O)cc1	-15	-2	1.9	2	-49%	0.0	6.6	-10
30	COc1ccc(Cc2noc(-c3ccc(OC)c(OC)c3)n2)cc1OC	-14	-10	-1.8	0	-7%	-2.0	-17	3.5
31	O=C(NCC(=O)N1CCCC(C(F)(F)F)C1)c1ccco1 (stereo not drawn)	/	/	-11	-1	-6%	-0.9	1.9	/
32	Cc1cccc(-n2ccc(=O)c(C(=O)O)n2)c1	-12	-1	-2.9	-2	-11%	0.6	-2.3	-4.6
33	O=C(O)c1ccccc1SCc1csc(-c2ccccc2)n1	-4	-2	12*	0	/	-2.2	-0.8	27*
34	O=C(O)C1CC=CCC1C(=O)NCc1cn2ccccc2n1 (stereo not drawn)	-4	-2	-2.5	-2	9%	-0.4	3.4	4.3
35	O=C(N/N=C/c1ccncc1)c1ccc(-n2cccc2)cc1	-14	-22	0.0	2	8%	-1.0	-28	0.9
36	CC(=O)c1c(C)[nH]c(C(=O)COC(=O)c2ccc(C)s2)c1C	/	/	-3.2	-3	4%	0.1	4.0	/

Continued:
no.	Molecule	T cruzi repl	Calb FLC	LANA-H2A inh	Beta cell apopt	Vif A3G	Bfl-1 A1 inh	MLL AF4-AF9 inh	RanGTP-Impb inh
37	COc1ccccc1C(=O)NC(=O)COC(=O)c1oc2ccccc2c1C	/	/	1.8	-2	-4%	-0.6	-1.1	/
38	CN(/N=C/c1ccc(N(C)C)cc1)C1=NS(=O)(=O)c2ccccc21	1	-3	-4.2	14	-12%	2.2	-0.2	-2.4
39	COCCCNC(=O)CC1Oc2ccccc2NC1=O (stereo not drawn)	1	-7	-1.8	/	20%	0.4	-48	0.4
40	Cc1ccc(NC(=O)c2cnn(-c3ccccc3)c2NC(=O)c2ccco2)cc1C	4	-13	-0.4	0	1%	0.7	/	2.6
41	Cc1ccc(S(=O)(=O)c2nnn(-c3cccc(F)c3)c2N)cc1	1	-9	-8.8	-6	-1%	-0.8	1.5	2.2
42	COC(=O)c1ccc(Oc2cc(C)nc(NCc3ccccc3)n2)cc1	5	11	0.3	2	-1%	-2.6	/	-2.7
43	Cc1cccc(C)c1NC(=S)N/N=C1\CC2CC=CC12 (stereo not drawn)	-16	-3	-3.4	-3	-8%	0.3	-3.5	1.8
44	COc1ccccc1OCc1nc(C#N)c(N2CCC(C(N)=O)CC2)o1	10	3	3.1	-8	1%	2.4	/	-1.9
45	O=C(Nc1ccc(N2CCOCC2)cc1)c1ccccc1SCC(=O)N1CCCC1	0	-11	-2.2	-10	6%	0.5	-1.2	-1.3
46	Cc1ccccc1CN1C(=O)c2ccccc2Sc2ccc(C(=O)O)cc21	11	-14	2.9	-1	2%	1.2	-1.8	-6.4
47	CS/C(=N\S(=O)(=O)c1cccs1)Nc1ccc(F)cc1	-23	46	-3.2	-1	/	0.9	/	-0.8
48	O=C(N/N=C/c1ccc(N2CCOCC2)o1)c1ccccc1[N+](=O)[O-]	1	8	1.7	-1	28%	0.1	/	?

More entries:
no.	Molecule	T cruzi repl	Calb FLC	LANA-H2A inh	Beta cell apopt	Vif A3G	Bfl-1 A1 inh	MLL AF4-AF9 inh	RanGTP-Impb inh
49	COc1cc(/C=C/C(=O)OCC(=O)NCC(=O)Nc2cccc(C)c2C)ccc1OC(F)F	/	/	-2.9	0	1%	-0.3	1.0	/
50	CCn1nnnc1-c1ccc(OC)c(S(=O)(=O)Nc2ccc(S(N)(=O)=O)cc2)c1	-3	-20	-1.2	-5	12%	0.0	-1.4	1.5
51	COc1ccccc1CNC(=O)c1cc(C(C)=O)c[nH]1	-5	9	5.6	-2	2%	0.0	-2.6	6.7
52	CCOC(=O)C1=C(C)OC(N)=C(C#N)C1c1ccc(OC)c(CSc2ccccn2)c1 (stereo not drawn)	-6	-13	-4.3	3	-3%	-0.7	3.4	2.8
53	CC(C)n1c(C(=O)OCC(=O)NCc2ccc3c(c2)OCO3)cc2sccc21	5	-39	-0.1	-5	-2%	0.0	7.7	-2.2
54	O=C1CCCCCN1C(=O)c1ccc(C(=O)N2CCCCCC2=O)cc1	-24	8	-2.7	-3	0%	-0.2	/	2.2
55	CC(=O)Nc1cccc(/C(C)=N/NC(=O)c2cccs2)c1	-14	-14	-4.8	5	0%	-0.4	/	-0.4
56	COCCCNCCCCOc1c(Cl)cc(C)cc1Br	35	-31	-1.8	1	17%	0.2	/	-4.9
57	Cc1ccc(-n2c(=O)c3sccc3n(CC(=O)NCc3ccco3)c2=O)cc1	3	1	4.9	-4	2%	0.4	/	-0.8
58	Cc1cc(Cl)cc(C)c1OCCOCCNCc1ccccc1	40	-5	-3.3	/	8%	0.3	-15	1.1
59	CCc1noc(C)c1C(=O)OCC(=O)Nc1nc(-c2ccc(F)c(F)c2)cs1	/	/	2.7	13	/	-0.9	-5.7	/
60	NS(=O)(=O)c1cc(C(=O)N2CCc3ccccc32)c(Cl)cc1Cl	13	-1	5.7	-8	1%	0.0	/	3.4
61	CCN1C(=O)N[C@H](c2ccc(Br)cc2)C(C(=O)OC)=C1C	-1	-2	0.5	-4	/	0.0	-32	3.2
62	CC(C)(C)c1ccc(OCc2ccc(C(=O)NCc3cccnc3)o2)cc1	3	-6	-0.4	43	1%	-0.5	2.7	5.1
63	CC(C(=O)N1CCN(Cc2ccc3c(c2)OCO3)CC1)n1cc([N+](=O)[O-])cn1 (stereo not drawn)	-7	-3	-0.4	5	14%	-0.1	-0.9	1.2
